Screening results: PubChem BioAssay, several laboratories
Ecoli growth = inhibitors of Escherichia coli growth | OD600, 23 h; stronger effect = lower value | OD600 absorbance (no concentration beside the values) | 330,000 compounds, 0.21% hits;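 active means OD600 absorbance below the run mean of sample wells minus 3.6 SD, in any replicate, cut at about 0.56 in these data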;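 further: stock transfer was 300 nL into about 60 µL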
Beta cell apopt = blocks beta cell apoptosis | INS-1E cytokine-induced death, ATP luminescence, 48 h; percent of positive-control rescue, neutral wells zero | protection from apoptosis, % (test concentration not listed) | 300,000 compounds, 0.8% hits | AID 435005;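 active means all replicates at 75% or more, or half of them and the mean; inconclusive means half reach 75% but not the mean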;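 further: 0% = cytokine-treated negative control wells and 100% = positive control rescue; higher means more ATP so stronger rescue from cytokine killing; wells of about 40 µL received 100 nL stock; the first replicate is given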
MLL AF4-AF9 inh = blocks AF4 peptide binding to human AF9; P42568; AlphaScreen, biotin-AF4 peptide binding to FLAG-AF9; inhibition, % at 10 µM; 350,000 compounds, 0.47% hits;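 active means every replicate reaching a set inhibition limit, whatever the replicate mean, cut at about 25% in these data; inconclusive means mean inhibition reaches that limit but some replicates miss it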;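 further: 0% = plate neutral control median and 100% = total signal loss; the record names both 10 and 1 µM as test concentration; the first replicate is given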
Target sequence (P42568 whole entry, looked up): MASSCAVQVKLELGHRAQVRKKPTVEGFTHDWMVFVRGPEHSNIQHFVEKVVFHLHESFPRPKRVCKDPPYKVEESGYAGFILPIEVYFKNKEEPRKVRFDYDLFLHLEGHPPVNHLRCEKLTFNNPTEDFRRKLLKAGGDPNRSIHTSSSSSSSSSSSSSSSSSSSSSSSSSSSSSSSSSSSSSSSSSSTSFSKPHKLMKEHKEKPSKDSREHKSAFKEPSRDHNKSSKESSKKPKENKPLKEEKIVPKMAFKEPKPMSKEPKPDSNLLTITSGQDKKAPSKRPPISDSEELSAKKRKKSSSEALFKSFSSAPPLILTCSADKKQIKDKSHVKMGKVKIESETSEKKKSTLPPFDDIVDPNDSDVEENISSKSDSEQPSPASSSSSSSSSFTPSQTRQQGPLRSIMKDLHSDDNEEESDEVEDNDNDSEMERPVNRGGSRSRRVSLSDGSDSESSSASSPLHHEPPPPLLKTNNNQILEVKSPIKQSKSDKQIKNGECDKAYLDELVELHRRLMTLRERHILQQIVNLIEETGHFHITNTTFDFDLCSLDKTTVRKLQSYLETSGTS
A1 inh = inhibitors of the anti-apoptotic protein A1, read as caspase activation | MEF A1-2A-BIM cells, Caspase-Glo 3/7 luminescence, 3 h; percent of clofoctol response, vehicle zero | caspase activation, % (test concentration not listed) | 330,000 compounds, 0.066% hits;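 active means over half of replicate activation scores above 10%, or exactly half above 10 with the replicate mean above 10; inconclusive means replicate mean below 10 yet half the replicates above 10; inactive means over half of replicates below 10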;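 further: wells of about 30 µL received 50 nL stock; many hits fall short of the cut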
T cruzi repl = T. cruzi replication inhibition; T. cruzi beta-gal in NIH3T3, luminescence, 90 h; inhibition, % (concentration not given with the values); 300,000 compounds, 1.4% hits;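 active means mean inhibition across valid replicates above about 55%, limit read from the data; inconclusive means mean below that limit but half or more replicates reach it; inactive means mean below it, under half of replicates reach it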;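 further: signal also drops with host cell toxicity which is not excluded here; 0% = plate median of DMSO wells and 100% = zero luminescence signal; higher percent means less beta-gal luminescence so fewer parasites; stock transfer was 50 nL into about 50 µL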
Ecoli rRNA inh = selective bacterial rRNA inhibition in E. coli | AID 720706 | E. coli WT GFP vs humanized-ribosome RFP mutants, fluorescence, 24 h; stronger effect = lower value; DMSO median 0, no signal -100 | GFP signal change (wild-type ribosome), % (concentration not given with the values) | 350,000 compounds, 1.6% hits;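 active means significant combined selectivity score with lowered wild-type GFP, culture density cut under 30%, mutant RFP and density less affected; inactive means any of these conditions unmet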; further: one replicate is shown; some compounds called inactive have numbers as strong as hits
FGF22 binding = shifts melting point of recombinant human FGF22. recombinant FGF22 thermal shift, SYPRO orange fluorescence; percent of sucrose octasulfate shift, DMSO zero. AID 651658. 340,000 compounds, 1.5% hits. calls only at 9.99 µM;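 active means melting point raised past a set limit in the mean and every replicate; inconclusive means no clear call; three in four hits are not shown here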
Target sequence (Q9HCT0 whole entry, looked up): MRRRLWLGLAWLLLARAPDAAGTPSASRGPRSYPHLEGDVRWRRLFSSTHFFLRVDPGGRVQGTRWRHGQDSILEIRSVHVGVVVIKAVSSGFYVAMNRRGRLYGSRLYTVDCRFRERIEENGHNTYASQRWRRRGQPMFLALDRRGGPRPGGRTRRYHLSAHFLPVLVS
UCH37 DUB inh = inhibitors of human deubiquitinating enzyme UCH37. 330,000 compounds, 0.33% hits. AID 588478. purified proteasome/UCH37, Ub-AMC cleavage fluorescence. inhibition, % (test concentration not listed);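 active means mean of two replicates above 20%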;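 further: 0% = compound-free wells with enzyme and 100% = wells lacking proteasome; stock transfer was 100 nL into about 20 µL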
Target sequence (Q9Y5K5 whole entry, looked up): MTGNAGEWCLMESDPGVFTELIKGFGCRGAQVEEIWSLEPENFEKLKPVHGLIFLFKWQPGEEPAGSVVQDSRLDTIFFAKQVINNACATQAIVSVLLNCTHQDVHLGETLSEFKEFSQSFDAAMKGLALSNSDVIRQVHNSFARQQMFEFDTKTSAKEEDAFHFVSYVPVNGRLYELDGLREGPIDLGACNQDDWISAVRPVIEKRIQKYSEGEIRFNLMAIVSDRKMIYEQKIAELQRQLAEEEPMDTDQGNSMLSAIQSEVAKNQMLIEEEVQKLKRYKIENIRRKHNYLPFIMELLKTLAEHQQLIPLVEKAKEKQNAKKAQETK
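Material: Human UCH37 enzyme supplied as purified proteasome complex | Schedule: 30 min preincubation with enzyme, 25 min cleavage at room temperature | Detection: AMC fluorescence 355/460 nm | Measure: % inhibition of Ub-AMC cleavage fluorescence | Controls: Wells without proteasome as full block, compound-free enzyme plus substrate as uninhibited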
Ecoli rRNA inh OD600 = further read-out of Ecoli rRNA inh, marked with its call; OD600 change, %; measured here: OD600 growth;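 optical density of the mix in the first replicate; 0 = DMSO median and -100 = no signal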
Ecoli rRNA inh RFP = further read-out of Ecoli rRNA inh, marked with its call; RFP signal change, %; measured here: RFP humanized mutant strains;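 first replicate; 0 = DMSO median and -100 = no signal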
* marks the source's active call; other numbers are inactive results; i = inactive; ? = inconclusive; · = no result given. A portion of the library. The share of hits here may be higher or lower than overall.

A first look, three compounds:
SMILES	Ecoli growth	Beta cell apopt	MLL AF4-AF9 inh	A1 inh	T cruzi repl	Ecoli rRNA inh	Ecoli rRNA inh OD600	Ecoli rRNA inh RFP	FGF22 binding	UCH37 DUB inh
Cc1nn(-c2ccccc2)c(C)c1C(=O)NCCc1ccc(Cl)cc1	0.69	4	-1.3	0.3	11	-1	-24	2.6	i	0.5
CCN(CC)CC(=O)Nc1ccc2c(c1)N(C(=O)CN(CC)CC)c1ccccc1CC2	0.69	-2	-36	-0.2	11	13	10	1.0	i	4.1
Cc1cc(C(F)F)n2ncc(C(=O)NC3CCCCCC3)c2n1	0.75	2	·	-0.2	9	·	·	·	·	-4.9

All compounds of this part (from the top)
SMILES	Ecoli growth	Beta cell apopt	MLL AF4-AF9 inh	A1 inh	T cruzi repl	Ecoli rRNA inh	Ecoli rRNA inh OD600	Ecoli rRNA inh RFP	FGF22 binding	UCH37 DUB inh
Cc1nn(-c2ccccc2)c(C)c1C(=O)NCCc1ccc(Cl)cc1	0.69	4	-1.3	0.3	11	-1	-24	2.6	i	0.5
CCN(CC)CC(=O)Nc1ccc2c(c1)N(C(=O)CN(CC)CC)c1ccccc1CC2	0.69	-2	-36	-0.2	11	13	10	1.0	i	4.1
Cc1cc(C(F)F)n2ncc(C(=O)NC3CCCCCC3)c2n1	0.75	2	·	-0.2	9	·	·	·	·	-4.9
COC(=O)CN1C(=O)[C@H]2[C@@H](/C=C/c3ccccc3)N3C(=O)CN(Cc4ccccc4)C(=O)[C@@]3(C)[C@H]2C1=O	·	-1	-1.8	?	-12	6	16	-5.2	i	0.2
Cc1cc(NC(=O)CSc2cn(CCNC(=O)c3ccc(Cl)cc3)c3ccccc23)no1	0.69	-4	3.7	-0.4	0	-4	-9	3.9	i	2.7
COc1ccccc1C(=O)Nc1ccc(S(=O)(=O)N2CCCCC2c2cccnc2)cc1 (centres undefined)	0.72	16	0.2	0.2	27	-22*	-17*	6.1*	i	3.0
c1ccc2cc(OCCCn3ccnc3)ccc2c1	0.6	-4	4.6	-0.6	63*	-14	-25	-5.6	·	5.3
CCOc1ccc(C2CC(=O)c3c([nH]c(C(=O)OC)c3C)C2)cc1OC (centres undefined)	0.77	4	·	1.1	4	·	·	·	·	2.1
Oc1c(CN2CCCCC2)cc(Br)c2cccnc12	0.17*	96*	·	-1.6	56*	·	·	·	·	7.8
Cc1cc(SCC(=O)NC(=O)NCc2ccco2)nc2ccccc12	0.69	·	·	-0.7	-9	·	·	·	·	6.1
O=c1oc2c(-c3ccc([N+](=O)[O-])cc3)cc(O)cc2s1	0.65	-8	8.0	0.9	-15	9	6	-1.0	i	5.9
O=C(COC(=O)c1ccc(O)cc1)Nc1cccc(S(=O)(=O)NC2=NCCC2)c1	0.66	1	5.2	-0.7	·	-3	1	1.7	i	-0.1
CN(C)c1cccc(C(=O)OCC(=O)Nc2ccccc2Sc2ccccc2)c1	0.72	-12	-1.7	0.3	7	-1	-1	9.0	i	-24
CC(C)CC(C(=O)N1CCOCC1)N1Cc2ccccc2C1=O (centres undefined)	0.7	-3	-0.5	0.9	-4	10	9	-1.8	i	4.7
COc1ccc(OC(C)C(=O)NC(C)c2ccccc2)cc1 (centres undefined)	0.64	-3	0.6	0.3	-10	2	-6	-2.3	i	5.5
CC(O)CN=c1cc(-c2ccccc2)oc2ccc(Cl)cc12 (centres undefined)	0.64	24	·	-1.3	0	-44	-74	-3.9	·	2.1
COCCCNC(=S)Nc1ccccc1[N+](=O)[O-]	0.64	0	-1.4	-0.2	-1	13	8	-1.3	i	2.0
CC(C)c1ccc(NC2CCCN(C(=O)c3ccnn3C)C2)cc1 (centres undefined)	0.67	-1	3.6	0.9	-2	-2	6	2.3	i	-0.3
CCC(CC)c1nnc(NC(=O)COc2ccc3c(c2)OCO3)s1	0.69	5	-5.0	0.3	-5	-5	-6	0.0	i	1.1
Cc1ccc(S(=O)(=O)NCCC(=O)NNC(=O)COc2ccc(Br)cc2)cc1C	·	0	-0.1	-0.4	·	-11	-10	6.4	i	·
COc1ccc(N(CC(=O)NCCSCc2ccco2)S(=O)(=O)c2ccccc2)cc1Cl	0.7	4	5.0	0.0	17	-28	-29	0.4	i	0.9
Fc1cccc(F)c1/C=N/Nc1ccccn1	·	-6	0.3	0.2	-15	-16	-6	-12	i	·
O=C(Cc1ccc(Cl)cc1)NNC(=O)c1ccco1	0.69	-2	0.7	0.2	-3	4	7	-4.1	i	1.4
CSc1nc2ncc(C#N)cn2n1	0.65	-1	-1.8	0.1	-5	12	14	-0.6	i	-7.6
CC(NC(=O)CCc1nnc(C2(c3ccc(Cl)cc3)CCC2)o1)C1CC1 (centres undefined)	0.7	1	-3.0	-0.3	-8	2	1	-0.8	i	0.2
C#CC1CN(Cc2ccccc2)CC(C#C)N1C (centres undefined)	0.68	-1	·	-0.1	-7	·	·	·	·	-0.1
CC(C(=O)N1CCN(Cc2ccc3c(c2)OCO3)CC1)c1ccc([N+](=O)[O-])cc1 (centres undefined)	0.72	-2	4.9	-0.3	13	15	6	0.3	i	1.2
NC(=S)Nc1cccc(F)c1	0.67	2	-0.8	-0.6	-27	22	21	2.2	i	5.9
COc1cc(NC(=O)CN2CCC(C(N)=O)(N3CCCCC3)CC2)c(OC)cc1Cl	0.7	-2	1.4	-0.6	10	-11	-8	0.3	i	0.9
O=c1cc(-c2ccccc2)oc2cc(OCc3ccccc3)cc(O)c12	0.71	1	-0.9	0.1	-4	9	13	-0.4	i	2.2
COc1ccc(CNC(=O)CCCn2nc(C)c3c(C)n(-c4ccccc4)nc3c2=O)cc1	0.68	-5	-1.4	1.5	1	3	8	-2.8	i	-0.2
CSc1nsc(NC(=O)OCc2ccc(Cl)cc2)n1	0.64	-1	-5.4	-0.3	-7	-40	-64	-7.3	i	6.6
Cc1noc(C)c1CSc1ccccc1C(=O)O	0.7	-1	-3.5	0.7	3	4	4	3.2	i	3.9
COc1cc(C(C(=O)NC2CCCC2)N(C(=O)c2snc(C(N)=O)c2N)C2CCCC2)cc(OC)c1OC (centres undefined)	·	-3	-1.9	0.0	0	1	-7	2.6	·	·
O=C(Nc1ccc(NS(=O)(=O)c2ccccc2)cc1)c1ccc(Cl)cc1	0.74	-2	-4.0	0.4	20	3	-3	-1.0	i	5.3
Nc1cc(S(=O)(=O)Nc2ccccc2Cl)ccc1N1CCOCC1	0.71	3	-3.5	0.1	3	-4	-10	-3.7	i	5.3
Nc1nonc1C(=O)NC(c1ccccc1)c1ccccc1	0.66	1	·	-0.1	-12	·	·	·	·	6.0
COc1ccc(-c2nnc3ccc(SCC(=O)N4CCOCC4)nn23)cc1	0.72	-11	4.0	0.2	-1	6	7	-1.6	i	2.2
CCn1c2ccccc2c2cc(NC(=O)CSc3nnc(C4CC4)n3Cc3ccco3)ccc21	0.71	1	·	0.5	19	·	·	·	·	-1.7
Cc1ccc([N+](=O)[O-])cc1NC(=O)c1ccc(CSc2ccccc2)cc1	0.68	-2	·	-0.9	-3	·	·	·	·	1.8
COc1cc(C(CC(=O)Nc2ncccc2C)N2Cc3ccccc3C2=O)cc(OC)c1OC (centres undefined)	0.68	-3	2.3	0.5	-6	-46	-70	-10	i	-1.7
Cc1cccc(OCc2nnc(SCc3cc(=O)[nH]c4ccccc34)n2-c2ccccc2)c1	0.66	-2	·	0.1	14	·	·	·	·	6.1
COc1ccc(-c2cc(C(F)(F)F)nc(N3CCN(Cc4ccccc4)CC3)n2)cc1OC	0.72	-7	·	0.5	31	·	·	·	·	4.9
Cc1nn(C(=O)N(C)C)c(C)c1CN1C(=O)c2ccccc2C1=O	0.69	·	1.9	0.3	-3	-1	0	-0.3	i	1.4
CC(C)NC(=O)CSc1nc(Cc2cccs2)nc2ccccc12	0.65	-5	·	0.0	26	·	·	·	·	3.8
Cc1ccc(CCC(=O)Nc2ccc(S(N)(=O)=O)cc2)o1	0.78	5	·	0.2	3	·	·	·	·	3.3
CCCNC(=O)COC(=O)c1n[nH]c2ccccc12	0.71	-1	-0.8	-0.1	-3	13	3	2.9	i	0.0
CCOc1ccc(-n2ccnc(SCC(=O)Nc3ccc(CC)cc3)c2=O)cc1	0.59	·	-21	1.7	-1	6	2	0.6	i	-134
COc1ccc(OC)c(NC(=O)c2ccc(N3C(=O)C4CC=C(C)CC4C3=O)cc2)c1 (centres undefined)	0.67	-9	3.5	-1.3	-5	-1	-4	-0.4	i	-0.7
O=C(CN(c1ccccc1)S(=O)(=O)c1ccc(Cl)cc1)Nc1ccccc1C(=O)N1CCCC1	0.72	-2	0.3	0.0	-4	-49	-63	-14	i	4.8
CCn1c(=O)cc(OCC(=O)NCCc2ccc(OC)c(OC)c2)c2ccccc21	0.7	5	1.4	0.0	11	-5	-7	-2.3	i	2.9
CC(C)c1nc(SCC(=O)N2CCCC2)c2ccccc2n1	0.68	·	·	0.3	21	·	·	·	·	6.0
O=C(Nc1ccncc1)C1COc2ccccc2O1 (centres undefined)	0.74	-2	·	0.1	0	·	·	·	·	-2.6
COc1ccc(NS(=O)(=O)c2ccc(NC(=O)Cc3cccs3)cc2)cc1	0.69	13	1.2	1.5	-24	-22	-35	-11	i	1.5
COc1ccccc1/C=C/C(=O)NCC(=O)N/N=C/c1ccccc1[N+](=O)[O-]	·	1	0.6	-0.1	61*	-10	-13	-0.6	i	·
COc1ccc(C(=O)CC2(C(=O)O)CCCCC2)cc1	0.6	0	-2.5	-0.3	-8	-2	-9	-1.4	i	1.3
NC1=NN=C(N2N=C(c3ccc(Br)cc3)CC2(O)C(F)(F)F)n2ncnc2C1 (centres undefined)	0.64	2	-2.0	-1.0	-14	19	11	3.6	·	-44
Cc1nnc2sc(SCC(=O)N3CCCCC3)nn2c1=O	0.69	-3	-3.8	0.1	5	13	13	1.8	i	9.6
COCCn1c(SCc2cccc(F)c2)nc2cc(C(=O)OC)ccc2c1=O	0.68	3	-1.0	-0.3	-12	1	6	0.0	i	-4.6
COc1cc2cc(CN(CCCO)S(=O)(=O)c3ccccc3)c(=O)[nH]c2cc1OC	0.67	-3	·	0.6	-1	·	·	·	·	-150
COc1cc(O)ccc1C=O	0.57	-5	?	1.4	2	7	0	-2.3	i	12
O=C1Nc2ccccc2N(O)N1c1cc(-c2ccc(Cl)cc2)[nH]n1	0.71	-1	-1.1	0.5	-11	3	-5	-0.6	·	0.5
CCc1nn(C(C)C(=O)NCCN2CCN(c3cccc(C)c3C)CC2)c(=O)c2cc3occc3n12 (centres undefined)	0.73	-2	·	-0.8	40	·	·	·	·	-3.9
